ALR inh = human ALR oxidase inhibition via reduced H2O2; inhibition, % (test concentration not listed); AID 485317; purified ALR, DTT oxidation, H2O2 HRP-luminol luminescence; P55789; 3.8% of 290,000 active;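 active means mean and each replicate at 75% or more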;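 further: stock transfer was 7.5 nL into about 7.5 µL; 0% = neutral wells and 100% = wells with inactivated enzyme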
Target sequence (P55789 whole entry, looked up): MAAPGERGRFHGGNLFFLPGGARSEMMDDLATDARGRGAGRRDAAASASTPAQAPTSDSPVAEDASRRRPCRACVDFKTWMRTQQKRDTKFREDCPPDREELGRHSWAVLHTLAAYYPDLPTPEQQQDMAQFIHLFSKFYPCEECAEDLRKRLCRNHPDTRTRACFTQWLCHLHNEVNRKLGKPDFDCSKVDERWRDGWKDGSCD
Ecoli growth = blocks Escherichia coli growth | AID 1053175 | OD600 absorbance (concentration not given with the values) | 0.21% of 330,000 active | OD600, 23 h; active compounds read low;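 active means OD600 absorbance below the run mean of sample wells minus 3.6 SD, in any replicate, cut at about 0.56 in these data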;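 further: stock transfer was 300 nL into about 60 µL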
HNF4A DNA FP = change in binding of human HNF4 alpha to DNA; P41235; HNF4a-FITC DNA binding, fluorescence polarization, 1 h; activity change, % at 10 µM; 0.3% of 360,000 active; in the data active means activity change above about 30%, passing the limit was not always enough;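 further: controls were the assay level and a saturating level of protein; the project sought stronger binding though the title names inhibitors; some compounds called inactive have numbers as strong as hits; positive values seem to mean higher polarization but the record does not say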
Target sequence (P41235 whole entry, looked up): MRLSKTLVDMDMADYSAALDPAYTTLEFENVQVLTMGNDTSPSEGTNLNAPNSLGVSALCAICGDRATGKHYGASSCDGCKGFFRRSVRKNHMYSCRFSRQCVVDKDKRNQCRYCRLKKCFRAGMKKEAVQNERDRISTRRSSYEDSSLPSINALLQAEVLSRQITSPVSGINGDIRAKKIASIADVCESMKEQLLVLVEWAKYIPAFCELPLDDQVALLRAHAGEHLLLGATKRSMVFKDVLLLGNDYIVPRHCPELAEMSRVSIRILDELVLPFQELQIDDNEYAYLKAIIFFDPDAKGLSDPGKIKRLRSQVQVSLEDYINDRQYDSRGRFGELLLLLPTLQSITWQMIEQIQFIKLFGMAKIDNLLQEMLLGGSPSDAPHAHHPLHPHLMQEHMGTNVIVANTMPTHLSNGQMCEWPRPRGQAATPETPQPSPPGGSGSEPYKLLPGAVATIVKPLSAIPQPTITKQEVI
UCH37 inh = blocks the human deubiquitinase UCH37; Q9Y5K5; purified proteasome/UCH37, Ub-AMC cleavage fluorescence; 0.33% of 330,000 active; inhibition, % (no concentration beside the values);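 active means mean of two replicates above 20%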;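 further: 0% = compound-free wells with enzyme and 100% = wells lacking proteasome; stock transfer was 100 nL into about 20 µL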
Target sequence (Q9Y5K5 whole entry, looked up): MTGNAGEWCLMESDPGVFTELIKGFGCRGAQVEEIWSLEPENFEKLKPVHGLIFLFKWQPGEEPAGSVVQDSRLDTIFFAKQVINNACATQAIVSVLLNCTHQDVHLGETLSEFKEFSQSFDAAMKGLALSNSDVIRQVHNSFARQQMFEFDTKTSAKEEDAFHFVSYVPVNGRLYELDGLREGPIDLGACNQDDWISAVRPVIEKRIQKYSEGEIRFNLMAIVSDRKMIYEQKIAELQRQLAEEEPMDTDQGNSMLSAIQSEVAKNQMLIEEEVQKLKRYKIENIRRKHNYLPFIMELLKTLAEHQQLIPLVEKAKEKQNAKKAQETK
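Signal – fluorescence, ex 355 nm, em 460 nm · System – Proteasome-bound UCH37 · Input – 0.15 nM proteasome as dispensed · Timing – 30 min preincubation with enzyme, 25 min cleavage at room temperature · Read-out basis – percent inhibition of cleavage signal versus uninhibited and no-proteasome wells · Medium – Tris-HCl pH 7.4 with ATP-MgCl2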
FGF22 binding = binders of recombinant human FGF22 by thermal shift | Q9HCT0 | SYPRO orange fluorescence; percent of sucrose octasulfate shift, DMSO zero | calls only at 9.99 µM | 1.5% of 340,000 active | AID 651658;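 active means melting point raised past a set limit in the mean and every replicate; three in four hits are not shown here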
B2AR ag = human beta-2 adrenergic receptor agonism by FAP. AID 504454. Am2.2-beta2AR cells, FAP receptor internalization, flow cytometry; reference of the scale not given here. 0.43% of 340,000 active. P07550. response, % (no concentration beside the values);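 active means response above a set limit, near 3 SD of response in nonfluorescent compounds, cut at about 42% in these data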;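 further: stock transfer was 100 nL into about 11 µL; a reference agonist was the positive control; negative values mostly stem from fluorescent compounds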
rRNA inh HTS = selective bacterial rRNA inhibition in E. coli. E. coli WT GFP vs humanized-ribosome RFP mutants, fluorescence, 24 h; active compounds read low; DMSO median 0, no signal -100. GFP signal change (wild-type ribosome), % (no concentration beside the values). 1.6% of 350,000 active. AID 720706;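 active means significant combined selectivity score with lowered wild-type GFP, culture density cut under 30%, mutant RFP and density less affected; inactive means any of these conditions unmet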; further: one replicate is shown; some compounds called inactive have numbers as strong as hits
rRNA inh HTS OD600 = recorded beside rRNA inh HTS, whose call it bears; OD600 change, %; measured here: OD600 growth;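 optical density of the mix in the first replicate; 0 = DMSO median and -100 = no signal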
rRNA inh HTS RFP = second read-out of rRNA inh HTS, no call of its own (marks repeat the call); RFP signal change, %; measured here: RFP humanized mutant strains;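 first replicate; 0 = DMSO median and -100 = no signal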
Active calls of the source: *; i = inactive; / = not tested or not shown; + = active, no number. Not all compounds are listed, so the mix of outcomes need not match the whole.

SMILES	ALR inh	Ecoli growth	HNF4A DNA FP	UCH37 inh	FGF22 binding	B2AR ag	rRNA inh HTS	rRNA inh HTS OD600	rRNA inh HTS RFP
CC(C)C(=O)NC(c1ccco1)c1ccc2cccnc2c1O (configuration not stated)	-3.8	/	2.0	-1.3	/	-6.9	/	/	/
COc1ccccc1C1/C(=C(/O)c2ccccc2)C(=O)C(=O)N1CCO (configuration not stated)	-2.5	/	30.7	5.6	/	1.9	/	/	/
CN(c1ccc([N+](=O)[O-])cc1/C=N/NC(=O)COc1ccccc1)C1CCCCC1	-5.0	/	-0.2	/	i	1.1	16.6	1.4	2.7
Cc1sc2nc(CSCC(=O)N(C)c3ccccc3)[nH]c(=O)c2c1C	/	0.697	20.1	-2.5	i	-2.9	-3.4	1.2	1.1
COC(=O)c1c(-c2ccc(OC)cc2)sc2cc(OC)c(OC)cc12	-3.4	0.677	3.1	-21.7	i	4.2	-23.8*	-12.3*	8.1*
CS(=O)(=O)N1CCC(Oc2cccc(C(=O)NCCCC3CCCC3)c2)CC1	-16.1	0.666	5.6	2.0	/	-1.1	/	/	/
CCOc1ccc(C(=O)/C=C/Nc2ccc(S(=O)(=O)N=C(N)N)cc2)cc1	-1.2	/	2.6	/	/	1.7	/	/	/
CCOc1ccc(C(=O)CCNC(Cc2cnc[nH]2)C(=O)O)cc1 (configuration not stated)	-0.4	0.735	1.3	6.2	i	0.8	8.4	3.4	6.7
O=C(NN=C1CCCCCC1)C(=O)Nc1cccc(Br)c1	-4.5	0.593	4.2	0.6	/	-6.0	/	/	/
COc1cc2nc(CN3CCC(Cc4ccccc4)CC3)[nH]c(=O)c2cc1OC	4.2	0.727	-4.7	3.0	i	9.8	4.6	1.9	1.8
CC(C)(C)c1ccccc1NC(=O)CN1C(=O)NC2(CCCC2)C1=O	-19.5	0.687	1.8	0.0	i	-0.2	3.0	5.5	-0.4
COC(=O)CSc1cnc2ccccc2n1	-0.4	0.719	0.5	3.5	/	2.9	/	/	/
Cc1cc(C)n2nc(SCN3C(=O)c4ccccc4C3=O)nc2n1	-10.6	0.689	-0.6	0.4	i	-14.2	15.9	16.3	0.2
CCCc1nc2ccccc2c(C(=O)OCC(=O)NC2CC2)c1CC	-1.4	0.671	1.5	3.7	i	12.8	-19.1	-19.9	-0.3
Oc1ccccc1-c1nnc(-c2ccc(C(F)(F)F)cc2)o1	0.8	0.69	-0.1	-69.6	/	0.3	/	/	/
CC(=O)c1ccc(/C=C/c2nc3ccccc3n2C)o1	5.5	0.652	1.0	i	i	-22.0	/	/	/
CCC(C)(C)NC(=O)CN(C(=O)CCC(=O)Nc1ccccn1)c1ccc(F)c(Cl)c1	-4.2	0.698	4.2	-1.6	/	-1.4	/	/	/
COc1cc(C2C3=C(CC(C)(C)CC3=O)N(C)C3=C2C(=O)CC(C)(C)C3)cc(Br)c1O	/	0.67	-2.3	-9.1	i	-1.0	-1.2	2.8	-3.3
CC(=O)Nc1nnc(-c2c(-c3ccccc3Cl)noc2C)o1	-34.2	0.665	3.1	4.6	i	2.1	-4.0	2.3	-1.7
CC(CCc1ccccc1)NC(=O)c1cnc(Cl)c(Cl)c1 (configuration not stated)	-0.6	0.661	-0.7	3.4	i	-4.7	-8.8	-7.7	3.0
CCN(CC)S(=O)(=O)c1ccc(S(=O)(=O)N(CC(=O)Nc2ccccc2)Cc2ccco2)cc1	-9.3	0.691	3.2	2.4	/	3.1	/	/	/
Cc1ccc(-c2c[n+](CC(=O)Nc3ccc(C)cc3C)c3n2CCC3)cc1	-3.6	0.649	-0.3	2.3	+	-4.1	-33.1*	-19.8*	4.0*
CC(C)NC(=O)COC(=O)c1ccc(Oc2ccccc2)cc1	-5.2	0.687	-2.2	3.0	/	-21.0	/	/	/
Cc1ccc(S(=O)(=O)NCCNC(C)c2ccc(Br)cc2)cc1 (configuration not stated)	-1.3	0.672	-1.7	1.9	i	14.7	1.4	-17.6	7.0
C=CCn1c(-c2csc3c2CCC(C)C3)n[nH]c1=S (configuration not stated)	39.9	0.739	3.5	2.8	i	-19.4	-0.1	-4.3	1.2
CC(C)c1nc(CNC(=O)c2ccc(OC3CCN(Cc4ccccn4)CC3)cc2)cs1	-5.6	0.631	-0.2	-1.1	i	-13.4	3.4	6.5	-1.3
Cc1cccc(C)c1OCC(=O)Nc1cccc(NC(=O)c2ccco2)c1	-7.3	0.745	0.2	3.0	/	-4.9	/	/	/
CCOc1ccc(NC(=O)C/C(C)=N/NC(=O)COc2ccc(Br)cc2C)cc1	-4.3	/	-2.4	/	i	-7.1	-2.7	-8.1	1.5
O=C(CNC(=S)NC(=O)c1ccc(F)cc1)c1ccccc1	-0.5	0.681	-0.2	1.4	i	0.5	-1.9	-3.5	-6.3
OCc1ccc(-c2ccc3nccn3c2)cc1	/	/	0.5	/	i	/	14.2	10.8	-5.3
CCOC(=O)c1cc(-c2ccc(OC)cc2)n(CCC(=O)NC2CCN(Cc3ccccc3)CC2)c1C	-4.5	0.714	2.1	0.8	i	10.2	-7.3	-11.6	6.9
Cc1c(N2CCCCC2)[nH]c2ccccc12	/	/	-1.3	/	i	/	6.2	17.1	-0.7
CCc1ncc(C(O)c2ccc(Cl)cc2)n1Cc1ccccc1 (configuration not stated)	/	/	2.5	/	i	/	-2.6	-8.3	-9.1
COc1ccc(OC)c(/C=C/C(=O)N2CCN(S(=O)(=O)c3ccc(C)cc3C)CC2)c1	/	0.69	5.3	-106.7	i	6.0	/	/	/
CCCNC(=O)C(Cc1ccc(Br)cc1)NC(=O)c1ccc(C#N)cc1 (configuration not stated)	-1.6	0.713	0.5	1.6	i	-3.2	-4.7	1.5	1.4
COC(=O)c1ccc(C23CC4(C2)[C@H](CN(Cc2cccnc2)[C@@H]4c2ccccc2)C3c2ccccc2)cc1 (some centres not stated)	-6.5	/	11.7	3.0	i	0.4	4.0	4.4	2.8
O=C(Nc1ccc(Cl)cc1)c1cccc(NC2=NC3CS(=O)(=O)CC3S2)c1 (configuration not stated)	-22.2	0.747	-0.6	2.1	i	-8.7	-3.0	3.9	0.3
C=CCn1c(SCc2nc3ccccc3[nH]2)nnc1-c1ccccn1	-33.3	0.638	5.0	-0.2	/	-10.3	/	/	/
CCC1Sc2ccc(S(=O)(=O)CCC(=O)Nc3ccccc3Cl)cc2NC1=O (configuration not stated)	/	0.66	2.6	0.7	i	2.0	-1.0	-16.9	1.6
COc1ccc2c(c1)CC(=O)NC=C2	7.3	0.723	1.1	3.0	i	-8.2	9.9	-4.5	-1.1
CCOC(=O)C1=C(O)/C(=C/c2ccc(-c3ccccc3C(=O)O)o2)SC1=Nc1ccc(OC)cc1	/	0.745	19.3	23.5*	/	5.7	/	/	/
O=C(c1ccc(Cl)s1)N1CCc2ccccc21	-7.8	0.731	1.6	-1.9	/	7.5	/	/	/
O=[N+]([O-])c1cccnc1S(=O)(=O)c1ccccc1	5.8	/	0.8	/	i	0.9	8.1	10.8	1.2
O=C1OCc2ccc([N+](=O)[O-])cc21	/	0.683	0.7	4.6	i	-0.8	1.0	0.9	0.5
COc1cnc(-c2ccccn2)nc1Oc1ccccc1Cl	97.8*	0.729	-2.8	-0.8	/	8.7	/	/	/
CC(C)n1nnnc1-c1cccc(Cl)c1	-7.4	0.695	-5.4	0.8	/	0.5	/	/	/
CC(C)c1cccc(C(C)C)c1NC(=O)OC1CCCCC1	/	/	3.6	/	i	/	3.3	2.5	-1.4
CC(C)CC(=O)Nc1ccc(Cc2ccncc2)cc1	-4.4	0.667	1.9	0.2	i	-0.1	4.0	10.6	0.7
CCC(=O)N(Cc1cc2cccc(C)c2[nH]c1=O)c1ccccc1OC	-10.4	0.648	0.6	-6.8	i	-7.4	-0.5	-1.3	-3.2
O=C(NN1C(=O)/C(=C/c2cccs2)SC1=S)c1ccncc1	-34.2	0.725	-8.0	11.0	i	1.1	-29.4*	-10.4*	4.8*
COc1ccc(CCNC(=O)CCN2C(=O)[C@@H]3Cc4ccccc4CN3C2=O)cc1OC	-2.0	0.714	2.4	-1.0	i	12.6	0.0	13.9	-1.4
CC1CCCCC1NC(=O)/C=C/c1nc2ccccc2s1 (configuration not stated)	-3.6	0.685	3.3	-15.9	i	5.1	-18.1	-15.5	-4.3
O=C(Nc1nccs1)C1CCN(S(=O)(=O)c2ccc(Cl)c(C(F)(F)F)c2)CC1	-6.8	/	0.1	/	/	-4.0	/	/	/
Cc1ccccc1-c1nnc(SCC(=O)Nc2cccnc2Cl)o1	13.5	0.688	0.6	4.3	i	1.9	7.0	7.7	3.8
CCOc1ccc(C(=S)N2CCOCC2)cc1OC	-1.9	0.634	1.0	0.0	/	2.0	/	/	/
Cc1c(NC(=O)C(C)OC(=O)/C=C/c2ccc(OC(F)F)cc2)c(=O)n(-c2ccccc2)n1C (configuration not stated)	/	0.668	-1.2	2.7	i	7.5	1.1	2.4	-2.4
COc1ccc(NC(=O)c2cn(CCC#N)nc2-c2cccs2)cc1	0.7	0.647	2.4	1.3	/	8.2	-0.9	2.8	-1.0
COc1ccc2cc(CN(CC3CCCO3)C(=O)Nc3ccccc3OC)c(=O)[nH]c2c1 (configuration not stated)	-2.5	0.717	2.3	1.7	i	-23.6	5.4	10.5	-1.3
O=C1CC(c2ccccc2Cl)Cc2c1cnn2-c1nc2ccccc2s1 (configuration not stated)	-0.5	0.709	/	-2.1	i	/	3.2	0.6	2.2
CCOC(=O)N1C(=O)NC(=O)C1c1ccc(Cl)cc1 (configuration not stated)	/	/	-0.4	/	i	-9.9	11.7	15.8	1.9

For reference, some entries already given:
SMILES	ALR inh	Ecoli growth	HNF4A DNA FP	UCH37 inh	FGF22 binding	B2AR ag	rRNA inh HTS	rRNA inh HTS OD600	rRNA inh HTS RFP
C=CCn1c(-c2csc3c2CCC(C)C3)n[nH]c1=S (configuration not stated)	39.9	0.739	3.5	2.8	i	-19.4	-0.1	-4.3	1.2
CC(C)c1nc(CNC(=O)c2ccc(OC3CCN(Cc4ccccn4)CC3)cc2)cs1	-5.6	0.631	-0.2	-1.1	i	-13.4	3.4	6.5	-1.3

Later entries.
SMILES	ALR inh	Ecoli growth	HNF4A DNA FP	UCH37 inh	FGF22 binding	B2AR ag	rRNA inh HTS	rRNA inh HTS OD600	rRNA inh HTS RFP
CCCN=C1NC(=O)C(CC(=O)NCCc2ccc(OC)c(OC)c2)S1 (configuration not stated)	-5.7	0.723	-2.8	-0.2	i	-2.5	3.2	2.3	-1.4
COc1cccc(CN2CC(C(=O)N(C)Cc3[nH]c4ccccc4c3C)CCC2=O)c1 (configuration not stated)	-0.9	0.697	-1.3	1.7	i	2.3	3.1	-0.7	-3.1
CCc1nn(CC(=O)NCc2cccnc2)c(=O)c2cc3occc3n12	7.1	0.649	2.2	0.1	i	0.5	3.5	-1.4	-2.8
CCOC(=O)C1CCN(C(=O)CN(c2ccc3c(c2)OCCO3)S(=O)(=O)c2ccccc2)CC1	-14.7	0.688	-1.1	-0.1	/	8.9	-1.9	-6.9	0.1
Cn1c2c(c3ccccc31)CCSC2=O	-15.0	0.709	-1.5	0.6	/	-11.8	/	/	/
CCCCCCCC(=O)NN=C1CCN(Cc2ccccc2)CC1	-0.6	0.687	-0.9	2.4	/	9.2	/	/	/
O=C(NCC(c1cccnc1)N1CCOCC1)Nc1ccccc1 (configuration not stated)	-6.6	0.691	0.8	0.7	/	5.2	/	/	/
CCC(C)c1ccc(OCCn2ccnc2)cc1 (configuration not stated)	-6.9	0.618	-1.9	1.8	/	-10.6	/	/	/
CC(=O)Nc1ccc(C(=O)OCc2ccc(F)cc2Cl)cc1	0.0	0.672	1.4	0.9	/	0.8	-9.3	-12.6	-0.2
CCCC(=O)N1CCN(c2nc3ccc(CC)cc3s2)CC1	-2.9	0.688	1.2	1.9	i	-3.7	-16.5	-24.6	-5.2

High-throughput results (PubChem)
